Assay outcomes deposited in PubChem BioAssay by National Center for Advancing Translational Sciences (NCATS).
TRPML1 blocker: qHTS for Inhibitors of the Human Mucolipin Transient Receptor Potential 1 (TRPML1). Mucolipin-1 (Homo sapiens), Q9GZU1. TRPML1-inducible cells, Ca2+ dye fluorescence, FDSS; active compounds read low; inhibition of EC80 agonist-evoked calcium signal. activity change, negative = inhibition, % (no concentration beside the values). 390,000 tested, 0.02% active; in the data active means activity change below about -50%; inconclusive means about -30% to -50%; inactive means above about -30%;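 also: stimulus is agonist 54-4 at its EC80 concentration; % is scaled to controls: 0 for no effect and ±100 for the full control effect; compound concentration not given in the record; the text of the record puts the active cut at -80%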
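Calcium fluorescence in TRPML1-DL cells induced overnight with Tet: a 110 s read after compound pin addition, then a 110 s antagonist read after challenge with 54-4 at 4 uM final (EC80).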
PINK1 modulator: A Quantitative High throughput Screen to Identify Chemical Modulators of PINK1 Expression; 410,000 tested, 0.2% active; Potency, µM (top dose mostly 76.6 µM), without a hit: top-dose activation (PINK1 increase), most hits filed as activators; PINK1 immunofluorescence, high-content cytometry, 24 h; active = well fitted activation curve with a large enough effect; inconclusive = small, poorly fitted or top-dose-only effect; inactive = flat fitted curve, though single readings scatter; cell line not stated here;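 also: potency is read from the fitted curve at half-maximal effect; % of control where 0% means no effect; nearly all actives have a fitted effect of over 65% in size; a mitochondrial uncoupler was the plate control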
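Readout is PINK1 immunofluorescence, quantified alongside mitochondrial, cell and nuclear markers by laser-scanning microplate cytometry. Cells from a stable line were exposed to compound titrations (5 concentrations) for 24 hours, with CCCP controls.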
D2 potentiator: Beta-Arrestin HTS for Positive Allosteric Modulators of the Human D2 Dopamine Receptor: Potentiators. D(2) dopamine receptor (Homo sapiens), P14416. DiscoveRx D2 beta-arrestin cells, luminescence, 90 min; 100% = 57 uM dopamine signal. potentiation, % (no concentration beside the values). 360,000 tested, 0.23% active; active = potentiation of 50% or more; inconclusive = 30% to 50%; inactive = 30% or less;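 also: compound concentration not given in the record; tested on top of an EC20 dose of dopamine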
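PathHunter D2 cells, attached overnight at 37 deg C, received compound in DMSO plus dopamine at EC20 (50 nM final) for 90 min at 37 deg C. Beta-arrestin recruitment was read as luminescence after 1 h with detection reagent at ambient temperature.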
Six1-Eya2 inh: qHTS Assay for Inhibitors of the Six1/Eya2 Interaction | AlphaScreen GST-Six1/His-Eya2 binding, biochemical; active compounds read low; control for the full effect not named in the record | 360,000 tested, 0.56% active | AID 651725, 2012 | activity change, % (no concentration beside the values); in the data active = activity change below about -65%; inconclusive = about -30% to -65%; inactive = above about -30%; also: % is scaled to controls: 0 for no effect and ±100 for the full control effect
Target sequence (O00167 whole entry, looked up): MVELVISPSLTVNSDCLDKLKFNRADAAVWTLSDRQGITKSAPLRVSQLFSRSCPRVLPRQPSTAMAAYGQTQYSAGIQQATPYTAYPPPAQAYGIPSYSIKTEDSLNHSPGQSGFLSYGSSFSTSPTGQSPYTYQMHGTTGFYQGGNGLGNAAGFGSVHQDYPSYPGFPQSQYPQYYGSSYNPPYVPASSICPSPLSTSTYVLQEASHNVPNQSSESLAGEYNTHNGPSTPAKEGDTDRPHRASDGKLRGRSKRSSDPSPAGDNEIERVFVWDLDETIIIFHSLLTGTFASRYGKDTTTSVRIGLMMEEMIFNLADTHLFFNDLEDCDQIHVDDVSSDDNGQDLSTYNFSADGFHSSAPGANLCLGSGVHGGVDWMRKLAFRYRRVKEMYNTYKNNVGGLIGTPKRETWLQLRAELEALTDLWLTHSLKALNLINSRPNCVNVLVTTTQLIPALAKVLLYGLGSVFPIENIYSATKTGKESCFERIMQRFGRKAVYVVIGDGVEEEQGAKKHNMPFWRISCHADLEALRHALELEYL
Target sequence (Q15475 whole entry, looked up): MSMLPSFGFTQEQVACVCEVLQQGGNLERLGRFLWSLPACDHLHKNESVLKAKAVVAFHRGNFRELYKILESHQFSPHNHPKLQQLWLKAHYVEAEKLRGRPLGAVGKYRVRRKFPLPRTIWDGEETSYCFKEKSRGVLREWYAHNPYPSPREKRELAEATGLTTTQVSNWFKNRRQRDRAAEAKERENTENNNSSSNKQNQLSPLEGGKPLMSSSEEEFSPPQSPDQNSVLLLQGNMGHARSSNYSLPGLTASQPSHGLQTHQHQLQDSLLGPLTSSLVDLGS
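Homogeneous AlphaScreen proximity assay pairing GST-Six1 with His-tagged Eya2 (added as 5X mix: 250 nM and 500 nM) in 50 mM Tris pH 8.0, 300 mM NaCl, 1 mM TCEP. Glutathione donor and nickel acceptor beads; 1 h, 37 °C, dark.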
D2 ag: Beta-Arrestin HTS for Positive Allosteric Modulators of the Human D2 Dopamine Receptor: Agonists; activation, % (concentration not given with the values); AID 624465, 2012; DiscoveRx PathHunter D2 beta-arrestin, luminescence, 90 min; 100% = 57 uM dopamine signal; 360,000 tested, 0.084% active; D(2) dopamine receptor (Homo sapiens), P14416; in the data active = activation above about 40%; inconclusive = about 15% to 40%; inactive = below about 15%; also: compound concentration not given in the record; the text of the record calls up to 30% inactive
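Agonist mode: compounds alone added to overnight-plated D2 PathHunter cells for 90 min at 37 C, with 57 uM final dopamine (EC100) defining full response. Beta-arrestin recruitment detected by chemiluminescent reagent, read after 1 h at ambient temperature.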
TRPML1 ag: qHTS for Agonists of the Human Mucolipin Transient Receptor Potential 1 (TRPML1) | 410,000 tested, 0.12% active | Mucolipin-1 (Homo sapiens), Q9GZU1 | activation, % (no concentration beside the values) | AID 624414, 2012 | TRPML1-expressing cells, Ca2+ dye fluorescence, FDSS; host cell line not named in the record; reference of the full effect not given here; in the data active = activation above about 50%; inconclusive = about 30% to 50%; inactive = below about 30%; also: 0% is about no effect; the text of the record puts the active cut at 80%
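Tetracycline-induced TRPML1-DL cells are seeded and incubated overnight before loading with a no-wash Ca2+ dye and quencher. Agonist activity is taken from the 110 s fluorescence read following compound pin-transfer on an FDSS, before EC80 54-4 challenge.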
* marks the source's active call; other numbers are inactive results; ? = inconclusive; · = no result given; & = joins results of further samples; [ ] = dose if it differs, or a comment.

Start of the data: the first two compounds, ahead of the listing:
SMILES	TRPML1 blocker	PINK1 modulator	D2 potentiator	Six1-Eya2 inh	D2 ag	TRPML1 ag
CCCNC(=O)c1ccccc1NC(=O)c1ccccc1N(C)S(=O)(=O)c1ccccc1	5	1.0%	-9	8	-1.0	0.1
COc1ccccc1Nc1nc(N2CCOCC2)nc(N2CCOCC2)n1	8	-0.9%&0.0%	-10	-14	-7.5	-1.6

Main list, from the start:
SMILES	TRPML1 blocker	PINK1 modulator	D2 potentiator	Six1-Eya2 inh	D2 ag	TRPML1 ag
CCCNC(=O)c1ccccc1NC(=O)c1ccccc1N(C)S(=O)(=O)c1ccccc1	5	1.0%	-9	8	-1.0	0.1
COc1ccccc1Nc1nc(N2CCOCC2)nc(N2CCOCC2)n1	8	-0.9%&0.0%	-10	-14	-7.5	-1.6
Cc1nn2c(=O)cc(COC(=O)c3cccc(NC(=O)c4cccs4)c3)nc2s1	2	1.3%	·	·	·	1.8
O=C(CSc1nc2ccccc2c(=O)[nH]1)N1CCN(c2ccccc2)CC1	9	13%	-25	?	-3.4	-0.7
O=C(CCCn1c(=O)oc2ccccc21)N1CCN(c2ccccn2)CC1	12	-0.4%	24	-4	0.9	-0.3
COc1ccc(Cn2c(SCc3ccc(C(=O)NCCc4ccccc4)cc3)nc3cccnc32)cc1	11	5.4%	·	·	·	0.3
CC(=O)n1cc([C@H]2C=C(C(=O)Nc3ccccc3)O[C@@H](OCCCCO)C2)c2ccccc21	13	-1.2%	-4	-7	2.0	-0.5
O=C(NCCCNCc1ccccc1)c1ccccn1	-17&30	3.8%&-0.8%	-13&-6	7&3	-1.8&-3.6	0.2&0.0
O=C(COc1ccc2ccccc2c1Br)NC(=S)Nc1cccc(CO)c1	12	-2.6%	-18	-1	0.6	0.2
CC1CCN(CCCCOc2ccc([N+](=O)[O-])cc2)CC1	4	-2.1%	-16	-4	-1.0	-0.5
O=[N+]([O-])c1ccc(N2CCN(c3cccc(Cl)c3)CC2)cn1	6	4.4%	-9	-10	4.9	-0.4
O=C(CSc1ccc2nnc(-c3cccs3)n2n1)N1CCCC1	2	1.6%	1	-29	-4.1	-1.4
S=C(NCCc1ccccc1)NCCN1CCOCC1	-1	1.2%	-3	-4	2.3	-0.9
Cc1ccc(-c2ccc(CN3C(CC(C)C)C(=O)N(Cc4cn(Cc5ccco5)nn4)CCS3(=O)=O)cc2)cc1 (stereo unspecified)	2	2.5%	3	-2	-1.6	-0.3
Cc1cc(/C=C(\C#N)C(=O)O)c(C)n1CC1CCCO1 (stereo unspecified)	1	1.2%	-4	-3	0.1	1.1
NC(=O)c1cccn1Cc1ccccc1Cl	-3	-1.8%[38.3 µM]	-2	1	-1.5	-0.3
COc1ccccc1NS(=O)(=O)c1c(C(=O)N2CCCC2)c(C)n(C)c1C	-7	-0.8%	1	-2	-2.6	-0.1
C/C(CCc1ccccc1)=N\NC(=O)CC(=O)NCCc1ccccc1	-30	1.5%	-9	0	-3.5	0.1
Cc1cc2c(sc3c(C)ccc(C)c32)c(C)n1	2	-1.3%	-12	-2	-1.4	1.2
CC(C)c1ccc(NC(=O)C(c2ccccc2)N2CCN(C(=O)c3ccco3)CC2)cc1 (stereo unspecified)	-16	-1.7%	8	-9	-2.9	1.7
O=[N+]([O-])c1cc(S(=O)(=O)NCCN2CCOCC2)ccc1Sc1nnnn1-c1ccccc1	-9	-0.5%	26	2	7.9	1.4
O=C(NCc1cn(-c2ccccc2)nc1-c1ccccc1)c1cccc([N+](=O)[O-])c1	-6	-0.2%	0	-19	2.6	-1.1
Cc1c(Cl)cccc1NC(=S)NCCc1ccc(S(N)(=O)=O)cc1	-2	-1.6%	-3	2	4.1	0.0
CCNC(=S)NNC(=O)Nc1ccccc1	7	6.4%[38.3 µM]	-12	2	0.5	0.0
O=C(CCSc1ccc(Cl)cc1)NC1CCCC1	6	0.5%	-4	6	2.3	-1.5
Cn1c(SCC(=O)Nc2ccc3nc(SCC(=O)NC4CC4)sc3c2)nnc1-c1ccccc1	-3	9.3%	0	-4	1.4	0.5
CC(=O)NN1C(=O)c2ccccc2NC1c1ccccc1F (stereo unspecified)	-8	-3.2%	-6	11	5.8	1.4
Cc1ccc(NC2CCCN(C(=O)c3cccs3)C2)cc1C (stereo unspecified)	3	1.2%	-5	-10	-3.2	0.6
CCCOc1ccc(-c2c(C(=O)N/N=C(\C)COc3ccccc3)nnn2-c2nonc2N)cc1	2	-1.0%	-5	2	1.6	0.9
COc1cc(OC)cc(C(=O)NNC(=O)c2ccc3ccccc3n2)c1	32	14%	30	-13	4.1	0.7
O=C(COC(=O)c1ccccc1SCC(=O)N1CCCC1)NCc1ccc(F)cc1	-3	1.7%	-14	10	-0.2	-1.0
O=C(NC(C(=O)c1ccccc1)n1ccc(=O)[nH]c1=O)c1ccccc1 (stereo unspecified)	-5	-4.9%	2	0	-2.3	-0.7
CO/N=C/c1ccc(N2CCN(C(=O)c3ccc(Cl)cc3Cl)CC2)c([N+](=O)[O-])c1	22	-21%[38.3 µM]	-23	?	-1.8	6.2
CCN1CCCc2cc(CN(CCN3CCOCC3)C(=S)Nc3ccc(OC)c(Cl)c3)ccc21	-19	6.0%	3	-7	2.3	2.9
CN(C(=O)COC(=O)Cc1ccc(Cl)cc1)C1CCCCC1	-6	-1.8%	-7	11	-2.4	0.1
O=C(NCc1ccc2c(c1)OCO2)C(=O)Nc1cc2c3c(c1)CC(=O)N3CCC2	-15	0.9%	-2	2	0.5	-0.2
Cc1ccc(N2CC(C(=O)Nc3ccc4c(c3)OCO4)CC2=O)cc1C (stereo unspecified)	3	-1.4%	-5	3	-1.9	-0.2
CCCNC(=O)c1nc(C)n(-c2cc(Cl)cc(Cl)c2)n1	-5	-0.8%	-2	-2	-1.3	1.2
CS(=O)(=O)N1N=C(c2ccco2)CC1c1ccccc1Cl (stereo unspecified)	-4	6.1%	-4	2	-4.0	-0.9
CC1CCCN(C(=O)CSc2nc3ncccc3[nH]2)C1 (stereo unspecified)	-12	2.8%	0	-9	0.4	-0.4
COc1cccc2cc(C(C)=O)oc12	16	0.2%	-7	-13	1.3	2.1
COc1ccc(C(=O)OCc2nnc(-c3ccccc3)o2)cc1S(=O)(=O)N1CCOCC1	8	-3.6%	-27	-7	-7.0	1.1
CC(C)Sc1nc2ccsc2c(=O)[nH]1	-1	-1.3%	-5	8	-3.4	-0.2
O=C(CSc1ccccc1)N/N=C/c1ccccc1O	0	0.0%	-2	-21	0.3	-0.9
Cn1nc(-c2ccc(Cl)cc2)cc1NC(=O)CC(C)(C)CC(=O)O	1	0.7%	-23	-12	-4.2	1.1
COc1ccc(CNC(=O)c2cccc(-n3cnc4cccnc43)c2C)cc1	-16	0.2%	·	·	·	0.9
COc1ccc(C(=O)NC(Cc2c[nH]c3ccccc23)C(=O)O)cc1 (stereo unspecified)	17	-0.5%	-4	0	-1.5	0.9
CCN(C(=O)CSc1nc(-c2ccccc2)cn1N)c1c(N)n(Cc2ccccc2)c(=O)[nH]c1=O	-11	-2.0%	-12	4	-5.4	-0.1
COc1ccccc1CNc1nc2ccccc2c2nc(-c3cccc(C)c3)nn12	-9	0.5%	·	·	·	-0.4
CCOc1ccccc1Nc1ncnc2c1cnn2-c1ccc(C)cc1	35	1.1%	·	·	·	2.2
O=C(CN(C(=O)C1COc2ccccc2O1)c1ccccc1)NCC1CCCO1 (stereo unspecified)	-6	·	6	7	-1.1	0.6
COc1cc2cc(Oc3ccc4ccc(=O)oc4c3)c(=O)oc2cc1OC(C)=O	·	-0.8%	-1	-2	1.8	·
O=C(CSc1nccn1-c1ccc(F)cc1)Nc1cccc2ccccc12	23	13%	·	·	·	1.8
Cc1nc(Oc2ccc(F)cc2Cl)c2oc3ccccc3c2n1	42	-0.1%	·	·	·	1.4
CCOC(=O)C1CCN(C(=O)c2ccc(N3CCOCC3)c([N+](=O)[O-])c2)CC1	2	0.1%	-4	-3	-3.9	-0.8
CN(Cc1ccc(Cl)cc1Cl)C(=O)CNC(=O)c1ccco1	-7	-0.3%	5	0	-0.3	-0.7
CCC1Oc2ccc(C)cc2N(CC(=O)NCc2ccccc2OC)C1=O (stereo unspecified)	2	7.1%	-6	-4	-2.7	0.6
c1ccc(Nc2nc3ccccc3n3nnnc23)cc1	6	8.4%	5	5	11	0.2
CCCN(CCC)C(=S)Nc1cc(C(=O)OC)ccc1C(=O)OC	4	2.7%	11	-21	-0.6	-0.9
COc1cccc(CNC(=O)C2=C(C)C(=O)OC23CCCCCC3)c1	-2	1.0%	·	·	·	2.3

(further entries)
SMILES	TRPML1 blocker	PINK1 modulator	D2 potentiator	Six1-Eya2 inh	D2 ag	TRPML1 ag
Cn1c(Sc2nc3ccccc3n2C)nc2ccccc21	-12	7.0%	-11	5	0.4	-0.4
O=C(N/N=C/c1ccncc1)c1ccc2c(c1)OCO2	-2	-0.5%	-40	0	-2.7	0.1
COc1ccccc1-c1c(C)nn2c(N3CCN(c4ccccc4OC)CC3)cc(C)nc12	2	-0.1%	-9	1	-3.1	0.0
CC(=O)Nc1ccc(NC(=O)Cn2c(-c3ccc(F)cc3)cnc2SCC(=O)Nc2c(C)cccc2C)cc1	8	11%	4	2	2.0	1.3
Cc1cc(=O)oc2c(O)c(O)ccc12	5	0.3%&-1.0%	6	20	9.7	-0.6
Cn1cc(/C=C/C(=O)N2CCCC(C(=O)c3ccc(C(F)(F)F)cc3)C2)cn1 (stereo unspecified)	-6	0.4%	-2	17	-3.1	-0.3
Cc1ccc(NC(=O)COC(=O)c2csc3c2CCC(C)C3)cc1S(=O)(=O)N1CCCCC1 (stereo unspecified)	-10	0.4%	1	0	4.7	-0.6
Cn1nc(C(=O)N2CCN(c3ccccc3F)CC2)c2c1-c1ccccc1SC2	40	0.6%	·	·	·	2.5
CC(=O)NC(c1ccccc1)c1nc(-c2cccc(C(F)(F)F)c2)cs1 (stereo unspecified)	·	2.8%	0	4	-2.8	-0.9
Cc1cccc(C(=O)Nc2ccccc2OCc2cc(=O)n3ccccc3n2)c1	-15	22%	·	·	·	0.1
CCCCc1c(C)nc(Nc2ccc(OC)cc2)[nH]c1=O	-18	6.9%	-8	1	-0.8	-0.4

Results in Six1-Eya2 inh, D2 potentiator and TRPML1 ag, for some of the entries so far:
molecule | Six1-Eya2 inh | D2 potentiator | TRPML1 ag
CCOC(=O)C1CCN(C(=O)c2ccc(N3CCOCC3)c([N+](=O)[O-])c2)CC1 | -3 | -4 | -0.8
CN(Cc1ccc(Cl)cc1Cl)C(=O)CNC(=O)c1ccco1 | 0 | 5 | -0.7
CCC1Oc2ccc(C)cc2N(CC(=O)NCc2ccccc2OC)C1=O (stereo unspecified) | -4 | -6 | 0.6
c1ccc(Nc2nc3ccccc3n3nnnc23)cc1 | 5 | 5 | 0.2
